Bioassay records: PubChem, several laboratories
Mtb hypoxia inh: inhibitors of hypoxia-regulated fluorescent reporter in Mycobacterium tuberculosis | M. tuberculosis hypoxia-regulated fluorescent reporter, fluorescence | fluorescence inhibition, % (no concentration beside the values) | 0.1% of 300,000 active | AID 1159583;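 active = 35 to 45% if threefold the growth effect, above 45% if 1.5-fold the growth effect; inactive = the rest, general growth blockers included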;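 also: wells of about 50 µL received 100 nL stock; 0% = vehicle wells and 100% = reference inhibitor wells; whole bacteria with a GFP reporter of the hypoxia response; strong numbers were not always called active; many hits fall short of the cut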
RN4220 kill: S. aureus RN4220 growth inhibition | inhibition, % (concentration not given with the values) | OD600, 16 h | 0.33% of 330,000 active;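 active = z-score of -3 or lower and OD600 up to 0.18 on both plates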;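 also: plate controls were untreated cells for no effect and reference antibiotic for full effect; stock transfer was 100 nL into about 80 µL; one replicate is shown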
Bead autofluor: counter-screen for toxin protease inhibitors: compound fluorescence; compound autofluorescence counterscreen, microsphere flow cytometry; active compounds read high; fluorescence intensity (no concentration beside the values); 3.1% of 360,000 active; AID 624483;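 active = at least 3 SD above the mean of all compounds, about 16000 in these data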;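 also: 100 nL of 1 mM stock went into each well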
ugtP null kill: compounds lethal to S. aureus RN4220 ugtP deletion mutant | OD600 growth, 16 h; some inactives read as strong as hits | growth inhibition, % (concentration not given with the values) | 0.54% of 330,000 active;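 active = z-score under -3 and OD600 up to 0.15 on both plates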;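 also: plate controls were untreated wells for no effect and antibiotic for full effect; wells of about 80 µL received 100 nL stock; the first replicate is given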
BJeLR viability: BJeLR cell viability loss | BJeLR (HRASV12) viability, CellTiter-Glo ATP luminescence, 48 h; reference of the scale not given here | inhibition, % (no concentration beside the values) | 0.17% of 300,000 active | AID 1554;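 active = replicate mean above 50%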;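 also: 50 nL library stock added to about 25 µL; numbers are from one replicate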
PrP UTR inh: suppresses PrP 5' UTR mRNA reporter expression | 0.35% of 340,000 active | cell-based PrP 5' UTR mRNA reporter, plate reader | inhibition, % (concentration not given with the values);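 active = every replicate at 50% or more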;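 also: 0 = median of the neutral control wells; tested in H4 reporter cells; numbers are from one replicate; inactives centre near -14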
Mtb hypoxia inh growth: recorded beside Mtb hypoxia inh, whose call it bears; growth inhibition, %; measured here: M. tuberculosis growth (absorbance);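 0% = vehicle and 100% = reference antibiotic; read after six days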
Starred values were filed as active, the others as inactive.

What do the screens show for `CC(C)=CC(O)C/C(C)=C/COc1ccc2ccc(=O)oc2c1` (stereo not drawn)?
RN4220 kill: 7.5; Bead autofluor: 5706; ugtP null kill: -8; BJeLR viability: -3; PrP UTR inh: -1

How did COc1cccc(OC)c1C(=O)Nc1ccc2c(c1)N(S(=O)(=O)c1cccs1)CCC2 do in these assays?
Mtb hypoxia inh: 15; RN4220 kill: 3.2; Bead autofluor: 6040; ugtP null kill: 6; BJeLR viability: 5; PrP UTR inh: -3; Mtb hypoxia inh growth: -1

Results for COc1ccc(/C=N/NC(=O)CCc2n[nH]c(=O)[nH]c2=O)cc1OC ?
Bead autofluor: 1970; BJeLR viability: -11; PrP UTR inh: -23

How did Cc1ccc(S(=O)(=O)Nc2ccccc2N2CCCCC2)cc1 do in these assays?
Mtb hypoxia inh: 13; RN4220 kill: 11; Bead autofluor: 3861; ugtP null kill: -1; PrP UTR inh: -21; Mtb hypoxia inh growth: 16

What do the screens show for `COc1cc(OC)c(C(=O)Oc2ccc3c(c2)OCO3)cc1OC`?
Mtb hypoxia inh: 5; RN4220 kill: 1.7; Bead autofluor: 10409; ugtP null kill: -2; BJeLR viability: -4; PrP UTR inh: -23; Mtb hypoxia inh growth: 16

How did CCOC(=O)C(Oc1ccc2c(-c3ccccc3)cc(=O)oc2c1)c1ccccc1 (stereo not drawn) do in these assays?
Mtb hypoxia inh: 0; RN4220 kill: -1.4; Bead autofluor: 2161; ugtP null kill: 35; BJeLR viability: 12; PrP UTR inh: -2; Mtb hypoxia inh growth: 4

Results for CC(Sc1nnc(-c2cccnc2)o1)C(=O)NC1CCCC1 (stereo not drawn) ?
Mtb hypoxia inh: 8; RN4220 kill: 2.6; Bead autofluor: 4517; ugtP null kill: 9; PrP UTR inh: -31; Mtb hypoxia inh growth: 8

What do the screens show for `COc1ccc(CCn2c(=S)[nH]c3cc(C(=O)NCc4ccco4)ccc3c2=O)cc1OC`?
Mtb hypoxia inh: 8; RN4220 kill: 2.5; Bead autofluor: 20732*; ugtP null kill: -6; BJeLR viability: 7; PrP UTR inh: -57; Mtb hypoxia inh growth: 4

Results for CCC(C(=O)NCc1ccccn1)n1c2ccccc2c2nc(=O)cc(C)n21 (stereo not drawn) ?
Mtb hypoxia inh: 10; RN4220 kill: 1.3; Bead autofluor: 5650; ugtP null kill: 4; BJeLR viability: -8; PrP UTR inh: -25; Mtb hypoxia inh growth: 7

What do the screens show for `O=C(CCCNC(=O)/C(=C/c1ccccc1F)NC(=O)c1ccccc1)OCc1ccccc1`?
Mtb hypoxia inh: 13; RN4220 kill: 6.5; Bead autofluor: 2034; ugtP null kill: 24; BJeLR viability: -11; PrP UTR inh: -25; Mtb hypoxia inh growth: 3

What do the screens show for `CCOc1cc(C=NNC(=O)NN(C)c2ncc(C(F)(F)F)cc2Cl)ccc1O`?
Mtb hypoxia inh: 7; RN4220 kill: 6.6; ugtP null kill: -3; Mtb hypoxia inh growth: 8

How did COc1ccc(NC(=S)N2CCN(C/C=C/c3ccccc3)CC2)cc1OC do in these assays?
Mtb hypoxia inh: 5; RN4220 kill: -16; Bead autofluor: 3255; ugtP null kill: -5; BJeLR viability: 6; PrP UTR inh: -21; Mtb hypoxia inh growth: 5

How did NS(=O)(=O)c1ccc(CCNC(=O)c2ccc([N+](=O)[O-])s2)cc1 do in these assays?
Mtb hypoxia inh: 4; RN4220 kill: 6.3; Bead autofluor: 6318; ugtP null kill: 5; BJeLR viability: 5; PrP UTR inh: -24; Mtb hypoxia inh growth: 13

What do the screens show for `O=C1/C(=C/c2cccnc2)Cc2ccc(Cl)cc21`?
Bead autofluor: 3879; BJeLR viability: -8; PrP UTR inh: -8

How did COc1ccc(C(=O)O)cc1S(=O)(=O)N(C)C do in these assays?
Mtb hypoxia inh: 4; RN4220 kill: 0.5; Bead autofluor: 4777; ugtP null kill: -3; BJeLR viability: 12; PrP UTR inh: -23; Mtb hypoxia inh growth: 4

An excerpt from above in order of length of the SMILES, high to low:
How did COc1cccc(OC)c1C(=O)Nc1ccc2c(c1)N(S(=O)(=O)c1cccs1)CCC2 do in these assays?
Mtb hypoxia inh: 15; RN4220 kill: 3.2; Bead autofluor: 6040; ugtP null kill: 6; BJeLR viability: 5; PrP UTR inh: -3; Mtb hypoxia inh growth: -1

What do the screens show for `CCOc1cc(C=NNC(=O)NN(C)c2ncc(C(F)(F)F)cc2Cl)ccc1O`?
Mtb hypoxia inh: 7; RN4220 kill: 6.6; ugtP null kill: -3; Mtb hypoxia inh growth: 8

What do the screens show for `CC(C)=CC(O)C/C(C)=C/COc1ccc2ccc(=O)oc2c1` (stereo not drawn)?
RN4220 kill: 7.5; Bead autofluor: 5706; ugtP null kill: -8; BJeLR viability: -3; PrP UTR inh: -1

Next section:
How did CC(C#N)Sc1ncnc2sc3c(c12)CCC3 (stereo not drawn) do in these assays?
Mtb hypoxia inh: 18; RN4220 kill: 6.6; Bead autofluor: 10833; ugtP null kill: -8; BJeLR viability: -12; PrP UTR inh: -10; Mtb hypoxia inh growth: 7

What do the screens show for `O=C(O)CCn1c(SCCOc2ccccc2F)nc2ccccc21`?
Mtb hypoxia inh: 5; RN4220 kill: 2.0; Bead autofluor: 3294; ugtP null kill: 3; BJeLR viability: 7; PrP UTR inh: -18; Mtb hypoxia inh growth: 1

Results for CCc1ccc(N=C2NC(=O)/C(=C/c3cc(OC)c(OC)c(OC)c3)S2)cc1 ?
Mtb hypoxia inh: 3; RN4220 kill: 2.5; Bead autofluor: 3945; ugtP null kill: -18; BJeLR viability: -7; PrP UTR inh: -21; Mtb hypoxia inh growth: 24

How did O=C(c1cn(-c2ccccc2)nc1-c1ccc(Br)cc1)N1CCOCC1 do in these assays?
Mtb hypoxia inh: 5; RN4220 kill: -0.4; Bead autofluor: 2517; ugtP null kill: 7; BJeLR viability: -5; PrP UTR inh: -8; Mtb hypoxia inh growth: 1

How did Cc1ccc(C2NNC(=O)C2NC(=O)c2ccccc2)cc1 (stereo not drawn) do in these assays?
RN4220 kill: 2.2; Bead autofluor: 5403; ugtP null kill: 7; BJeLR viability: -6; PrP UTR inh: -57

How did Brc1ccc(-n2c(SCc3nc4ccccc4[nH]3)nnc2-c2ccncc2)cc1 do in these assays?
Mtb hypoxia inh: 6; RN4220 kill: 3.7; Bead autofluor: 2809; ugtP null kill: 10; BJeLR viability: -7; PrP UTR inh: -42; Mtb hypoxia inh growth: 7

What do the screens show for `Cc1nnc(C)n1/N=C/c1ccc(-c2ccccc2)cc1`?
Bead autofluor: 4703; BJeLR viability: -7; PrP UTR inh: -17

Results for COc1ccc(NCC(=O)N/N=C(\C)c2cc3ccccc3o2)cc1 ?
Bead autofluor: 3802; BJeLR viability: 14; PrP UTR inh: -27

What do the screens show for `Cc1ccc2cc(C(c3nnnn3C3CCCC3)N(Cc3ccccc3)Cc3ccco3)c(=O)[nH]c2c1` (stereo not drawn)?
Mtb hypoxia inh: 1; RN4220 kill: 10; Bead autofluor: 13203; ugtP null kill: 8; BJeLR viability: 1; PrP UTR inh: -28; Mtb hypoxia inh growth: 1

How did O=C(O)CSc1nc(-c2ccccc2)nc2c1oc1ccccc12 do in these assays?
Mtb hypoxia inh: 8; RN4220 kill: 20; Bead autofluor: 3215; ugtP null kill: 5; BJeLR viability: -6; PrP UTR inh: -8; Mtb hypoxia inh growth: 8

How did CCc1ccc(CN2CCC(Oc3ccc(C(=O)N4CCCCC4)cc3)CC2)cc1 do in these assays?
Mtb hypoxia inh: 5; RN4220 kill: 2.7; Bead autofluor: 7541; ugtP null kill: 13; BJeLR viability: -3; PrP UTR inh: -7; Mtb hypoxia inh growth: 0

How did CCOc1ccc(C=NNC(=O)c2ccccc2C)cc1CN1CC2CC(C1)c1cccc(=O)n1C2 (stereo not drawn) do in these assays?
Mtb hypoxia inh: 9; RN4220 kill: 5.5; ugtP null kill: 3; Mtb hypoxia inh growth: 7

Results for CCN(CC)S(=O)(=O)c1cc(Cl)ccc1OC ?
Mtb hypoxia inh: 10; RN4220 kill: 3.2; Bead autofluor: 2599; ugtP null kill: 8; BJeLR viability: 7; PrP UTR inh: -26; Mtb hypoxia inh growth: 0

How did COCCNC(=O)C1CCC(=O)N1S(=O)(=O)c1ccc(C)cc1 (stereo not drawn) do in these assays?
Mtb hypoxia inh: 0; RN4220 kill: -1.0; Bead autofluor: 2900; ugtP null kill: 1; BJeLR viability: 5; PrP UTR inh: -25; Mtb hypoxia inh growth: -7

Results for CN(CCc1cn[nH]c1)Cc1nc(C(c2ccccc2)c2ccccc2)no1 ?
Mtb hypoxia inh: 0; RN4220 kill: 9.8; Bead autofluor: 2250; ugtP null kill: 2; BJeLR viability: 8; PrP UTR inh: -11; Mtb hypoxia inh growth: -2

Results for Cc1ccccc1C=CC(=O)NCC(=O)N1CCC(N(C)C2CCCCC2C)CC1 (stereo not drawn) ?
Mtb hypoxia inh: 6; RN4220 kill: -2.0; ugtP null kill: -10; Mtb hypoxia inh growth: 2

How did CCOC(=O)CCC(NC(=O)c1ccc(NCN2C(=O)CCC2=O)cc1)C(=O)OCC (stereo not drawn) do in these assays?
Mtb hypoxia inh: 12; RN4220 kill: 6.2; Bead autofluor: 10586; ugtP null kill: -3; BJeLR viability: -3; PrP UTR inh: 3; Mtb hypoxia inh growth: 7

How did Cc1ccccc1OCC(=O)NCCC(=O)O do in these assays?
Mtb hypoxia inh: 4; RN4220 kill: 5.2; Bead autofluor: 9473; ugtP null kill: 3; BJeLR viability: 2; PrP UTR inh: -20; Mtb hypoxia inh growth: 6

Results for CCON=CC(=O)Nc1ccc(F)cc1F ?
Mtb hypoxia inh: 8; RN4220 kill: 3.0; ugtP null kill: 1; Mtb hypoxia inh growth: 10

What do the screens show for `CC(=O)N1CCN(c2ccnc3cc(Cl)ccc23)CC1`?
Mtb hypoxia inh: 2; RN4220 kill: 2.5; Bead autofluor: 3321; ugtP null kill: 8; BJeLR viability: -4; PrP UTR inh: -13; Mtb hypoxia inh growth: -2

Results for Cc1ccccc1OCC(=O)Nc1cc(S(=O)(=O)N2CCOCC2)ccc1N1CCCC1 ?
Mtb hypoxia inh: 2; RN4220 kill: 3.6; Bead autofluor: 4807; ugtP null kill: 3; PrP UTR inh: -17; Mtb hypoxia inh growth: -1

How did Cc1ccc(C(=O)N(CC(=O)Nc2sc(C)c(C)c2C(N)=O)C2CCCC2)cc1 do in these assays?
Mtb hypoxia inh: 13; RN4220 kill: 5.2; Bead autofluor: 3138; ugtP null kill: -8; BJeLR viability: -1; PrP UTR inh: -21; Mtb hypoxia inh growth: 5

Results for COc1ccc(NC(=O)CSc2ncnc3c2cnn3Cc2ccccc2)cc1OC ?
Mtb hypoxia inh: 9; RN4220 kill: -0.6; Bead autofluor: 8459; ugtP null kill: -1; BJeLR viability: -4; PrP UTR inh: -14; Mtb hypoxia inh growth: 21

What do the screens show for `CCCCn1nc2cc(C(=O)NCCc3ccc(C)cc3)ccc2c1OCC`?
Mtb hypoxia inh: -3; RN4220 kill: -2.3; Bead autofluor: 3863; ugtP null kill: -2; BJeLR viability: 0; PrP UTR inh: -22; Mtb hypoxia inh growth: -2

Results for CC1CC(C)CN(S(=O)(=O)N2CCCC(C(=O)NC3CCCCC3)C2)C1 (stereo not drawn) ?
Mtb hypoxia inh: -3; RN4220 kill: 0.9; Bead autofluor: 5279; ugtP null kill: 5; BJeLR viability: 2; PrP UTR inh: -13; Mtb hypoxia inh growth: -3

Results for C[N+](C)(C)CCOC(=O)C1(c2ccccc2)CCCC1 ?
RN4220 kill: 4.3; Bead autofluor: 2583; ugtP null kill: 10; BJeLR viability: 3; PrP UTR inh: 1

How did Cn1cc(C(N)=O)c2ccccc21 do in these assays?
RN4220 kill: 4.6; Bead autofluor: 4890; ugtP null kill: 7; BJeLR viability: -6; PrP UTR inh: -24

Results for CCN(C(=O)C(C)OC(=O)C1C(C(=O)OC)=C(C)NC(C)=C1C(=O)OC)c1ccccc1 (stereo not drawn) ?
Mtb hypoxia inh: 2; RN4220 kill: 1.6; Bead autofluor: 3180; ugtP null kill: 5; BJeLR viability: 0; PrP UTR inh: -16; Mtb hypoxia inh growth: -2

Results for CCNC(=O)C(Cc1ccccc1)NC(=O)OCc1ccccc1 (stereo not drawn) ?
Mtb hypoxia inh: 1; RN4220 kill: 4.1; Bead autofluor: 4578; ugtP null kill: 0; BJeLR viability: 3; PrP UTR inh: -29; Mtb hypoxia inh growth: 7

Results for CCC1(C)OC(=O)N(CCCn2ccnc2C)C1(C)O (stereo not drawn) ?
Mtb hypoxia inh: 6; RN4220 kill: 2.8; Bead autofluor: 9624; ugtP null kill: -6; BJeLR viability: -9; PrP UTR inh: -11; Mtb hypoxia inh growth: 1
